TRPV1 PAM: HTS Assay for Compounds that Act as Potentiators of the Vanilloid Receptor 1; potentiation, % at 8.33 µM; TRPV1-expressing cells, Fluo-8 calcium influx, capsaicin EC20 potentiation; host cell line not named in the record; control for the full effect not named in the record; 320,000 compounds, 0.02% hits; active means potentiation above 80%; inconclusive means 30% to 80%; inactive means below 30%; further: 0% is about no effect
Target sequence (Q8NER1 whole entry, looked up): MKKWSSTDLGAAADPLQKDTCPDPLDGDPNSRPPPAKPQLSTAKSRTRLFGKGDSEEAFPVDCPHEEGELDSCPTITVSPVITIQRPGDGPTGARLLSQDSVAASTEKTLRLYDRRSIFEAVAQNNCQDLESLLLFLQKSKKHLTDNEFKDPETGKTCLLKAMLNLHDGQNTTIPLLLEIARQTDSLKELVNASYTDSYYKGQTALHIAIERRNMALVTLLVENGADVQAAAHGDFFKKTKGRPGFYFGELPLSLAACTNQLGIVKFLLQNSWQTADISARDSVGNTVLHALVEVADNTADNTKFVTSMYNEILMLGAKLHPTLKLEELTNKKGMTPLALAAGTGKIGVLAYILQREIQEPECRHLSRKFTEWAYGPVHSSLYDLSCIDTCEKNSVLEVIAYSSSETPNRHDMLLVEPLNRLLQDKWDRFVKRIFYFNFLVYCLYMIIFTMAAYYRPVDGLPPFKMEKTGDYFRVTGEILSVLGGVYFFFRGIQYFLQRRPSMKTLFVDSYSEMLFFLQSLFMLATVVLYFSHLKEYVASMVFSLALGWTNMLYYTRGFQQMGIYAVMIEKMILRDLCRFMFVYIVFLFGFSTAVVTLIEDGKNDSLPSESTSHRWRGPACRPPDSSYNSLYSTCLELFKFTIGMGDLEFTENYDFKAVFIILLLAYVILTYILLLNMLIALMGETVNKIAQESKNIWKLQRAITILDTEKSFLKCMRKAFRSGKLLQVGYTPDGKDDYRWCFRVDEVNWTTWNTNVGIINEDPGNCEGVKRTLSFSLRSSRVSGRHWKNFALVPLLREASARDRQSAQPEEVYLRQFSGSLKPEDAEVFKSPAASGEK
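Fluo-8 calcium influx in TRPV1-expressing cells, kinetic read (ex 480/em 520 nm). Compound added and read 3 min for agonist activity, followed by capsaicin at EC20 final and 2 min further read for enhancement.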
D2 agonist: Beta-Arrestin HTS for Positive Allosteric Modulators of the Human D2 Dopamine Receptor: Agonists; D(2) dopamine receptor (Homo sapiens), P14416; DiscoveRx PathHunter D2 beta-arrestin, luminescence, 90 min; 100% = 57 uM dopamine signal; activation, % (test concentration not listed); 360,000 compounds, 0.084% hits; AID 624465, 2012; in the data active = activation above about 40%; inconclusive = about 15% to 40%; inactive = below about 15%; further: compound concentration not given in the record; the text of the record calls up to 30% inactive
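Agonist mode: compounds alone added to overnight-plated D2 PathHunter cells for 90 min at 37 C, with 57 uM final dopamine (EC100) defining full response. Beta-arrestin recruitment detected by chemiluminescent reagent, read after 1 h at ambient temperature.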
PINK1 modulator: A Quantitative High throughput Screen to Identify Chemical Modulators of PINK1 Expression; PINK1 immunofluorescence, high-content cytometry, 24 h; Potency, µM (highest dose often 76.6 µM), for inactives: at the top dose activation (PINK1 increase), hits mostly activators; 410,000 compounds, 0.2% hits; AID 624263, 2012; active = well fitted activation curve with a large enough effect; inconclusive = small, poorly fitted or top-dose-only effect; inactive = flat fitted curve, though single readings scatter; cell line not stated here;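 further: potency means the concentration at half of the fitted maximal effect; % of control where 0% means no effect; nearly all actives have a fitted effect of over 65% in size; a mitochondrial uncoupler was the plate control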
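Compound titrations (5 concentrations, 24 h) on a stable cell line; DMSO and CCCP controls. Endpoint: fixed-cell PINK1 immunofluorescence with mitochondrial, cell and nuclear markers, scanned by microplate cytometer.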
CtBP-E1A blk: qHTS Assay for Inhibitors of the CtBP/E1A Interaction. CtBP / adenovirus E1A interaction (AlphaScreen). AlphaScreen GST-E1A/His-CtBP binding, 1536-well; active compounds read low; control for the full effect not named in the record. activity change, % (concentration not given with the values). 340,000 compounds, 0.49% hits. AID 651724, 2012; in the data active means activity change below about -65%; inconclusive means about -30% to -65%; inactive means above about -30%; further: on the % scale 0 is the no-effect control and ±100 the full control effect
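AlphaScreen with 125 nM GST-E1A and 125 nM His-CtBP (5X stocks) in Tris pH 8.0, 300 mM NaCl, BSA, Tween 20, TCEP. Compounds preincubated 2 h at 37 deg C, then glutathione donor/nickel acceptor beads added for 1 h at 37 deg C in dark.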
Sfp inh: qHTS Assay for Inhibitors of Bacillus subtilis Sfp phosphopantetheinyl transferase (PPTase); AID 1490, 2009; 310,000 compounds, 3.5% hits; Potency, µM, for the others: max response, negative = inhibition, hits mostly inhibitors; Biochemical Sfp PPTase activity, qHTS; active means well fitted inhibition curve with a large enough effect; inconclusive means small, poorly fitted or top-dose-only effect, or another doubt; inactive means no such curve, though single readings can be large or run the other way;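 further: the enzyme is Sfp with the accession as filed and its product quenches rhodamine fluorescence; potency means the concentration at half of the fitted maximal effect; 0% = enzyme reaction without inhibitor and -100% = no enzyme wells; top concentration of the series not given in the record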
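Reaction rates are the 30-min fluorescence difference (ex 525, em 598 nm) in wells containing 15 nM Sfp, 5 uM rhodamine-CoA and 12.5 uM BHQ-2-YbbR at pH 7.6 with 10 mM MgCl2.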
D2 potentiator: Beta-Arrestin HTS for Positive Allosteric Modulators of the Human D2 Dopamine Receptor: Potentiators. 360,000 compounds, 0.23% hits. D(2) dopamine receptor (Homo sapiens), P14416. AID 624464, 2012. potentiation, % (test concentration not listed). DiscoveRx D2 beta-arrestin cells, luminescence, 90 min; 100% = 57 uM dopamine signal; active = potentiation of 50% or more; inconclusive = 30% to 50%; inactive = 30% or less;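 further: compound concentration not given in the record; tested on top of an EC20 dose of dopamine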
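PathHunter beta-arrestin assay in DiscoveRx D2 cells. Compounds were added with an EC20 of dopamine (50 nM final) for 90 min at 37 deg C. Luminescence was read 1 h after detection reagent, with 57 uM dopamine as the EC100 control.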
Six1-Eya2 inh: qHTS Assay for Inhibitors of the Six1/Eya2 Interaction. AlphaScreen GST-Six1/His-Eya2 binding, biochemical; active compounds read low; control for the full effect not named in the record. 360,000 compounds, 0.56% hits. activity change, % (test concentration not listed). Homeobox protein SIX1 (Homo sapiens) + Protein phosphatase EYA2 (Homo sapiens), …; in the data active = activity change below about -65%; inconclusive = about -30% to -65%; inactive = above about -30%; further: on the % scale 0 is the no-effect control and ±100 the full control effect
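Six1/Eya2 binding was read as AlphaScreen signal after compounds were pinned into GST-Six1 plus His-tagged Eya2 (5X stock 250/500 nM) in pH 8.0 Tris/NaCl/TCEP buffer, beads added, then incubated 1 h, 37 C, dark.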
* = called active by the depositor; [ ] = remark or other dose.

A first look:
How did O=C1C(=O)N(Cc2cccc([N+](=O)[O-])c2)c2ccccc21 do in these assays?
TRPV1 PAM: -0.7; D2 agonist: -13.0; PINK1 modulator: 3.3%; CtBP-E1A blk: 6.5; Sfp inh: 4.9%; D2 potentiator: -26.2; Six1-Eya2 inh: 1.9

What do the screens show for `COc1ccc(F)cc1-c1cc(C(=O)NC2CCCCC2)[nH]n1`?
D2 agonist: 2.5; PINK1 modulator: 7.4%; CtBP-E1A blk: -0.4; D2 potentiator: -15.6; Six1-Eya2 inh: -0.6

All compounds of this part, from the first entry:
How did O=C1C(=O)N(Cc2cccc([N+](=O)[O-])c2)c2ccccc21 do in these assays?
TRPV1 PAM: -0.7; D2 agonist: -13.0; PINK1 modulator: 3.3%; CtBP-E1A blk: 6.5; Sfp inh: 4.9%; D2 potentiator: -26.2; Six1-Eya2 inh: 1.9

What do the screens show for `COc1ccc(F)cc1-c1cc(C(=O)NC2CCCCC2)[nH]n1`?
D2 agonist: 2.5; PINK1 modulator: 7.4%; CtBP-E1A blk: -0.4; D2 potentiator: -15.6; Six1-Eya2 inh: -0.6

How did COc1ccccc1CN(C)C(=O)C1(c2ccc(Cl)cc2)CC1 do in these assays?
TRPV1 PAM: -0.9; D2 agonist: -2.7; PINK1 modulator: 2.7%; CtBP-E1A blk: 15.4; Sfp inh: 4.0%; D2 potentiator: -6.5; Six1-Eya2 inh: -10.5

Results for COc1ccc(CNc2nc3ccccc3n2CCN2CCCCC2)c(OC)c1 ?
TRPV1 PAM: -10.1; D2 agonist: -5.8; PINK1 modulator: inconclusive; CtBP-E1A blk: -13.2; Sfp inh: inconclusive; D2 potentiator: -43.8; Six1-Eya2 inh: -10.9

What do the screens show for `Cc1ccc(CNC(=O)/C=C/C(=O)O)cc1`?
TRPV1 PAM: 18.2; D2 agonist: 0.1; PINK1 modulator: 0.0%; Sfp inh: -13.3%; D2 potentiator: -0.7; Six1-Eya2 inh: -1.9

Results for COCCNC(=O)c1ccc(-c2cn[nH]c2)c2ccoc12 ?
D2 agonist: -2.1; PINK1 modulator: 2.2%; CtBP-E1A blk: -14.5; D2 potentiator: 0.6; Six1-Eya2 inh: -12.6

Results for O=C(NCc1ccc(-c2nc3ccccc3s2)cc1)c1cc2ccccc2o1 ?
TRPV1 PAM: -3.3; D2 agonist: -1.4; PINK1 modulator: 3.8%; CtBP-E1A blk: 6.4; Sfp inh: 20.7%; D2 potentiator: -15.3; Six1-Eya2 inh: 8.9

What do the screens show for `COc1ccccc1/C=N/NC(=O)CSc1cc(C)nc2ccccc12`?
TRPV1 PAM: 0.4; D2 agonist: -0.8; PINK1 modulator: 5.2%; CtBP-E1A blk: -3.7; Sfp inh: -5.5%; D2 potentiator: -3.1; Six1-Eya2 inh: -6.9

How did Fc1cc(NC(=S)NCc2ccc(CNC(=S)Nc3ccc(Cl)c(F)c3)cc2)ccc1Cl do in these assays?
TRPV1 PAM: -3.6; D2 agonist: -4.0; PINK1 modulator: 8.6%; Sfp inh: 18.4%; D2 potentiator: -11.6; Six1-Eya2 inh: -0.5

What do the screens show for `Nc1ccc(C(=O)Nc2ccccc2C(=O)O)cc1`?
TRPV1 PAM: 15.0; D2 agonist: -0.8; PINK1 modulator: -2.5%; CtBP-E1A blk: inconclusive; Sfp inh: -2.4%; D2 potentiator: -9.0; Six1-Eya2 inh: -26.5

How did O=C(CCCCn1c(=O)c2ccccc2n(CC(=O)Nc2cccc(F)c2)c1=O)NCc1ccco1 do in these assays?
TRPV1 PAM: 4.1; D2 agonist: -4.9; PINK1 modulator: 19.6%; CtBP-E1A blk: -2.0; Sfp inh: 7.9%; D2 potentiator: 5.4; Six1-Eya2 inh: -11.6

How did COc1cc(CN2CCN(c3ccccc3F)CC2)cc(OC)c1O do in these assays?
TRPV1 PAM: -5.6; D2 agonist: inconclusive; PINK1 modulator: -0.2%[38.3 µM]; CtBP-E1A blk: -19.5; Sfp inh: -4.1%; D2 potentiator: -1.0; Six1-Eya2 inh: -7.4

What do the screens show for `Cc1ccccc1-c1cnc(C(O)c2ccc(Cl)cc2)[nH]1` (stereo unspecified)?
D2 agonist: -3.2; PINK1 modulator: 3.3%; CtBP-E1A blk: -10.7; D2 potentiator: -7.8; Six1-Eya2 inh: -15.4

Results for COc1ccccc1NC(=O)CCC(=O)OCC(=O)c1ccc(C)c([N+](=O)[O-])c1 ?
TRPV1 PAM: inconclusive; D2 agonist: -16.0; PINK1 modulator: -0.1%; CtBP-E1A blk: 8.5; Sfp inh: 3.1%; D2 potentiator: -29.1; Six1-Eya2 inh: 7.8

What do the screens show for `Cc1ccc(CNC(=O)CN(C(=O)C2(C)CC(=O)N=C3C=CC=CN32)c2cccc(C)c2C)cc1` (stereo unspecified)?
TRPV1 PAM: 4.8; D2 agonist: -3.5; PINK1 modulator: 0.2%; CtBP-E1A blk: -2.1; Sfp inh: 5.3%; D2 potentiator: 8.9; Six1-Eya2 inh: 2.3

What do the screens show for `CC(C)CN(CC(C)C)c1nc(N)c(C#N)c(CC#N)c1C#N`?
TRPV1 PAM: -9.2; D2 agonist: -0.9; PINK1 modulator: -1.3%; CtBP-E1A blk: 21.1; Sfp inh: 12.7%; D2 potentiator: 10.5; Six1-Eya2 inh: 12.7

What do the screens show for `CCOC(=O)C1=C(COC(=O)CCNS(=O)(=O)c2ccc(NC(C)=O)cc2)NC(=O)NC1C` (stereo unspecified)?
TRPV1 PAM: 4.0; D2 agonist: 4.9; PINK1 modulator: -3.2%; CtBP-E1A blk: -22.9; D2 potentiator: -15.6; Six1-Eya2 inh: 7.2

What do the screens show for `O=C(COc1cccc2c1CCN(Cc1ccccc1)C2=O)N1CCCCC1`?
TRPV1 PAM: 3.3; D2 agonist: 1.9; PINK1 modulator: 1.8%; CtBP-E1A blk: 14.3; Sfp inh: 16.2%; D2 potentiator: -10.1; Six1-Eya2 inh: 2.6

What do the screens show for `COc1ccc(N(CC(=O)NCCSc2ccccn2)S(C)(=O)=O)cc1`?
TRPV1 PAM: -4.5; D2 agonist: -1.5; PINK1 modulator: -3.6%; CtBP-E1A blk: 11.1; Sfp inh: 14.9%; D2 potentiator: -0.3; Six1-Eya2 inh: -0.8

How did O=C(/C=C/c1ccc(Cl)cc1)Nc1ccc(N2CCCCC2)cc1 do in these assays?
TRPV1 PAM: -22.9; D2 agonist: 1.8; PINK1 modulator: 5.1%[38.3 µM]; CtBP-E1A blk: 2.4; Sfp inh: 3.6%; D2 potentiator: -1.9; Six1-Eya2 inh: 3.2

What do the screens show for `NC(=O)CN1CCOCCOCCN(CC(N)=O)CCOCC1`?
TRPV1 PAM: 15.4; D2 agonist: -1.1; PINK1 modulator: -3.3%[38.3 µM]; CtBP-E1A blk: 3.5; Sfp inh: -4.5%; D2 potentiator: -10.5; Six1-Eya2 inh: 6.9

Results for COC(=O)CCC(=O)Nc1nc(-c2ccccc2)cs1 ?
D2 agonist: -3.0; PINK1 modulator: 3.3%; CtBP-E1A blk: -21.5; D2 potentiator: -2.2; Six1-Eya2 inh: 1.0

Results for CCCCN1C(=S)NC[C@@H]1Cc1cccc2ccccc12 ?
TRPV1 PAM: -0.3; D2 agonist: -0.9; PINK1 modulator: -0.4%; CtBP-E1A blk: 0.6; Sfp inh: -1.3%; D2 potentiator: -7.0; Six1-Eya2 inh: -4.1

What do the screens show for `CC(C)c1ccc(CC(=O)N2CCC2(C)C(=O)NS(=O)(=O)c2cccc(OC(F)F)c2)cc1` (stereo unspecified)?
D2 agonist: -2.5; PINK1 modulator: 0.6%; CtBP-E1A blk: 1.0; D2 potentiator: -5.3; Six1-Eya2 inh: 5.7

How did C/C(=N/NS(=O)(=O)c1ccccc1)c1ccc(NC(=O)C(F)(F)F)cc1 do in these assays?
TRPV1 PAM: 3.2; D2 agonist: -2.1; PINK1 modulator: 0.8%; CtBP-E1A blk: 3.2; Sfp inh: 8.6%; D2 potentiator: -18.8; Six1-Eya2 inh: 0.9

Results for Cc1cc(/C=C2/SC(=O)N(CC(=O)N3CCCC3)C2=O)c(C)n1C ?
TRPV1 PAM: 5.0; D2 agonist: -3.2; PINK1 modulator: 0.8%; CtBP-E1A blk: 5.1; Sfp inh: 9.2%; D2 potentiator: -9.5; Six1-Eya2 inh: -6.5

What do the screens show for `CC(=O)c1cccc(S(=O)(=O)NCCC(=O)NC2CCCCCC2)c1`?
TRPV1 PAM: 1.3; D2 agonist: 2.7; PINK1 modulator: -1.2%; CtBP-E1A blk: 6.7; D2 potentiator: -2.2; Six1-Eya2 inh: 3.5

What do the screens show for `CS(=O)(=O)Nc1ccccc1-c1ccc2nccn2c1`?
D2 agonist: -1.2; PINK1 modulator: 1.0%; CtBP-E1A blk: 2.0; D2 potentiator: -7.6; Six1-Eya2 inh: 7.7

Results for Cc1ccc(S(=O)(=O)N(Cc2cc3cccc(C)c3[nH]c2=O)c2ccccc2)cc1 ?
TRPV1 PAM: 0.7; D2 agonist: -3.3; PINK1 modulator: 6.5%; CtBP-E1A blk: -1.3; Sfp inh: 2.7%; D2 potentiator: -18.6; Six1-Eya2 inh: 6.3

How did O=S(=O)(c1ccc(Br)s1)N1CCN(c2ncccn2)CC1 do in these assays?
TRPV1 PAM: -11.4; D2 agonist: -0.2; PINK1 modulator: 3.0%[38.3 µM]; CtBP-E1A blk: 27.2; Sfp inh: 1.1%; D2 potentiator: 8.3; Six1-Eya2 inh: 12.2

What do the screens show for `CN(CC(O)CON=C1c2ccccc2-c2ccccc21)S(=O)(=O)c1ccc(Br)cc1` (stereo unspecified)?
TRPV1 PAM: -21.1; D2 agonist: 3.1; PINK1 modulator: inconclusive; CtBP-E1A blk: 11.0; Sfp inh: -0.5%; D2 potentiator: -13.9; Six1-Eya2 inh: 3.4

How did CNC(=S)Nc1cccc(C(=O)OC)c1 do in these assays?
TRPV1 PAM: 3.1; D2 agonist: -0.7; PINK1 modulator: 0.1%; CtBP-E1A blk: -8.7; Sfp inh: -20.2%; D2 potentiator: -2.1; Six1-Eya2 inh: -1.7

High-throughput results: PubChem, National Center for Advancing Translational Sciences (NCATS)
